Mtb betalactam: beta-lactam sensitization of Mtb H37Rv; inhibition, % at 25 µM; M. tuberculosis H37Rv growth with meropenem, percent inhibition; hits of this screen are not shown here; AID 434955; 0.27% of 330,000 active;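 active = about 74% or more and at least 40 points above the plate without the antibiotic, then above 30% in a dose series; inconclusive = first-round hits that could not be retested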;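 note: growth measured after seven days incubation then overnight dye step; 0% = bacteria only wells and 100% = bacteria with antibiotic; twin plates without the antibiotic show which effects depend on it; some results filed as inactive read as strong as hits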
Mtb growth: M. tuberculosis H37Rv growth inhibitors, H37Rv strain (AID 1626); M. tuberculosis H37Rv growth inhibition; higher % means a stronger effect; inhibition, % at 10 µM; hits with a dose series show IC50 in µM; 0.95% of 220,000 active;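 active = confirmed in a dose series; inconclusive = inhibition above 80% but not taken into the dose series; inactive = below 80% or under 30% at every dose of the series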;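 note: bacteria incubated seven days before Alamar blue readout; 0% = bacteria only wells and 100% = bacteria with antibiotic wells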
Arbovirus anti: blocks arbovirus infection; AID 1251; arbovirus infection cell-based antiviral screen; inhibition, % at 10 µM; 0.37% of 200,000 active;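 active = inhibition from about 30%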;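 note: bluetongue infection of BSR cells; cell survival read as ATP light after 72 h; 0% = infected wells without compound and 100% = uninfected wells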
YopH PTP inh: blocks Yersinia enterocolitica YopH tyrosine phosphatase; inhibition, %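 (about 10 µM by stock and volumes)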; fluorescence Ex485/Em525; 0.16% of 140,000 active;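 active = inhibition of 50% or more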;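 note: controls were vehicle for no effect and minimum signal wells for full effect; inactives centre near -20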
RecA splice inh: Mtb RecA intein splicing inhibition; inhibition, %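 (about 9 µM by stock and volumes)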; P9WHJ3; 0.75% of 290,000 active; cell-free RecA intein splicing, fluorescence; in the data active = inhibition above about 30%; inconclusive = no clear call, values can overlap the other calls;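 note: 0% = vehicle wells and 100% = reference inhibitor control wells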
Target sequence (P9WHJ3 whole entry, looked up, canonical isoform): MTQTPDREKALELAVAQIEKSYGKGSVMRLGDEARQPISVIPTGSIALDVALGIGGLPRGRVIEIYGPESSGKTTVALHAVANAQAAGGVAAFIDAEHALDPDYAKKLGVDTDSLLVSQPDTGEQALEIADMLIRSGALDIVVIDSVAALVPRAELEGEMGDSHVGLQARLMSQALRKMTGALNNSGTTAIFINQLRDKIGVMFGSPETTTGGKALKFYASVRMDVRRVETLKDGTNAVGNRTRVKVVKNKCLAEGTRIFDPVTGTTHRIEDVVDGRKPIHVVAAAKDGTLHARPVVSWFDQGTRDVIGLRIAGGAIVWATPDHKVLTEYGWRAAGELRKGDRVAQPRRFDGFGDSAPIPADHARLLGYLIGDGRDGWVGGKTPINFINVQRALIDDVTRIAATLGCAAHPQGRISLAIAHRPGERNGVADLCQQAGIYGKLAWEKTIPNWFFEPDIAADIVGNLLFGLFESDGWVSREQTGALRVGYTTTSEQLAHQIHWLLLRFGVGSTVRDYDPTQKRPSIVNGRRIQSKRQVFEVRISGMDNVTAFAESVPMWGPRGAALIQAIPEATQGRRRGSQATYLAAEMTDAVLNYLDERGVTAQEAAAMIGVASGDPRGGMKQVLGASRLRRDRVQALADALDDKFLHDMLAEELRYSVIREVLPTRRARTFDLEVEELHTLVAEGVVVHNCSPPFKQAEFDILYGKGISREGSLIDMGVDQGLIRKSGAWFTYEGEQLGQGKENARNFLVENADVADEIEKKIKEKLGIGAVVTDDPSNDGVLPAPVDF
Arbovirus anti repeat: recorded beside Arbovirus anti, whose call it bears; inhibition, %; measured here: 10K subset replicate screen; many hits read low in the repeat;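 first of two repeat runs on a subset; 0% = infected and 100% = uninfected wells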
* = called active by the depositor. An excerpt; count on the stated rates, not on these rows.

How did O=C(C1CCC1)N1CCN(c2ccnc3cc(Cl)ccc23)CC1 do in these assays?
Mtb betalactam: -5; Mtb growth: -1%; RecA splice inh: 17

What do the screens show for `O=C(CNc1ccc(F)cc1)N/N=C1\CCc2ccccc21`?
Mtb betalactam: -2; Mtb growth: -3%; Arbovirus anti: 19; RecA splice inh: -1.9

What do the screens show for `COc1cccc(-c2ccc3nnc(SCC(=O)N4CCOCC4)n3n2)c1`?
Mtb betalactam: -10; RecA splice inh: -0.6

Results for Nc1nnc(SCC(=O)c2cccc([N+](=O)[O-])c2)s1 ?
Mtb betalactam: 4; Mtb growth: -5%; Arbovirus anti: -5; RecA splice inh: 2.7

Results for COCC(C)n1c(C)cc(C(=O)CSc2nnc(Nc3ccccc3F)s2)c1C (configuration not stated) ?
Mtb betalactam: -9; Mtb growth: -3%; Arbovirus anti: 17; YopH PTP inh: -123; RecA splice inh: 0.9

How did CC(=O)c1c(C(C)=O)c(C)n(-c2ccc3ncccc3c2)c1C do in these assays?
Mtb betalactam: 3; Mtb growth: -8%; Arbovirus anti: 4; RecA splice inh: 12

How did CN(c1ccc(C(=O)NCc2ccncc2)cc1)S(C)(=O)=O do in these assays?
Mtb betalactam: -1; Mtb growth: -3%; Arbovirus anti: 14; YopH PTP inh: 8; RecA splice inh: -1.8

How did Oc1ccc(-c2nc3ncccn3c2Nc2ccc3c(c2)OCCO3)cc1 do in these assays?
Mtb betalactam: 1; Mtb growth: 19%; Arbovirus anti: 8; YopH PTP inh: -16; RecA splice inh: 1.3

What do the screens show for `COC(=O)[C@@]1(Cc2ccc(OC)cc2)[C@H]2c3cc(C(=O)N(C)C)n(Cc4ccc(OC(F)(F)F)cc4)c3C[C@H]2CN1C(=O)c1ccccc1`?
Mtb betalactam: -6; Mtb growth: 21%; Arbovirus anti: -17; YopH PTP inh: -60; RecA splice inh: 6.9

Results for Cn1cccc1C(=O)NS(=O)(=O)c1ccccc1Cl ?
Mtb betalactam: -3; Mtb growth: -14%; Arbovirus anti: -5; YopH PTP inh: -45; RecA splice inh: 1.2

How did COc1ccc(S(=O)(=O)N2CCOC2CNC(=O)C(=O)NCCCN2CCOCC2)cc1OC (configuration not stated) do in these assays?
Mtb betalactam: -6; RecA splice inh: -0.3

How did Cc1c(NC(=O)CSc2nc3ccc(Cl)cc3[nH]2)c(=O)n(-c2ccccc2)n1C do in these assays?
Mtb betalactam: -5; Mtb growth: -10%; Arbovirus anti: 1; YopH PTP inh: -7

How did COCC(=O)N(Cc1cc2cccc(C)c2[nH]c1=O)c1ccccc1 do in these assays?
Mtb betalactam: 2; RecA splice inh: 0.2

How did COC(=O)c1ccccc1NC(=O)NC1CCN(Cc2ccccc2)CC1 do in these assays?
Mtb betalactam: -5; Mtb growth: 5%; Arbovirus anti: 7; YopH PTP inh: -4; RecA splice inh: 0.1

How did CCC1CCCCN1Cc1ccc(OC)c(C)c1C (configuration not stated) do in these assays?
Mtb betalactam: -6; Mtb growth: -10%; Arbovirus anti: -5; YopH PTP inh: -7; RecA splice inh: -2.3

Results for CC(C)(C)C(=O)/C(=C\c1ccc([N+](=O)[O-])cc1)n1cncn1 ?
Mtb betalactam: 100; Mtb growth: inconclusive; Arbovirus anti: -38; YopH PTP inh: 23; RecA splice inh: 9.5

How did Cc1[nH][nH]c(=O)c1C=NCc1cccnc1 do in these assays?
Mtb betalactam: 4; Mtb growth: -2%; Arbovirus anti: 10; RecA splice inh: -0.2

What do the screens show for `Oc1ccc(/C=C/c2nc(-c3ccccc3O)n(-c3ccccc3)n2)cc1`?
Mtb betalactam: 100; Mtb growth: 22%; Arbovirus anti: -39; YopH PTP inh: -33; RecA splice inh: 21

How did CCCCc1ccc(NC(=O)COc2ccc(C(=O)Nc3ccccc3OCC)cc2)cc1 do in these assays?
Mtb betalactam: 49; Mtb growth: 78%; Arbovirus anti: -7; YopH PTP inh: -16; RecA splice inh: -1.6

How did Cc1ccccc1OC1C(=O)N(CC2CCCO2)C1c1ccc2c(c1)OCO2 (configuration not stated) do in these assays?
Mtb betalactam: 5; Mtb growth: -8%; Arbovirus anti: -10; RecA splice inh: -0.6

What do the screens show for `COc1ccc(N(CC(O)CN2C(=O)NC(C)(C)C2=O)S(=O)(=O)c2ccccc2)cc1` (configuration not stated)?
Mtb betalactam: 8; Mtb growth: -3%; Arbovirus anti: 3; YopH PTP inh: -17; RecA splice inh: 4.2

What do the screens show for `CCOc1ccc(N2C(=O)CC(N3CCN(c4ccc(F)cc4)CC3)C2=O)cc1` (configuration not stated)?
Mtb betalactam: -3; RecA splice inh: -2.5

How did CCOC(=O)N1CCN(S(=O)(=O)N2CCCC(C(=O)NCc3ccc(OC)cc3OC)C2)CC1 (configuration not stated) do in these assays?
Mtb betalactam: 7; RecA splice inh: -0.8

What do the screens show for `CCOC(=O)C1CCN(C(=O)c2cc(S(=O)(=O)N3CCCCCC3)ccc2OC)CC1`?
Mtb betalactam: -4; RecA splice inh: 1.3

Results for COc1ccc(CNC(=O)CC(C)S(=O)(=O)c2ccc3c(c2)NC(=O)CO3)cc1 (configuration not stated) ?
Mtb betalactam: 3; RecA splice inh: -0.6

Results for Cc1ccc(NC(=O)N/C=C/c2ccccc2)cc1 ?
Mtb betalactam: 11; Mtb growth: 7%; Arbovirus anti: 9; YopH PTP inh: -35; RecA splice inh: 3.7

Results for O=[N+]([O-])c1ccc(S(=O)(=O)NCC(c2cccnc2)N2CCc3ccccc3C2)cc1 (configuration not stated) ?
Mtb betalactam: -3; RecA splice inh: -0.3

How did O=C(Cc1ccc(S(=O)(=O)N2CCOCC2)s1)Oc1ccc(F)cc1 do in these assays?
Mtb betalactam: -7; RecA splice inh: 18

What do the screens show for `CC(C)c1ccc(NC(=O)C(c2ccccc2)N2CCC3(CC2)OCCO3)cc1` (configuration not stated)?
Mtb betalactam: -3; Mtb growth: -11%; Arbovirus anti: 2; YopH PTP inh: 2

What do the screens show for `CCOC(=O)c1c(OCCO)nn(-c2ccc(Cl)cc2)c1N`?
Mtb betalactam: -11; Mtb growth: 5%; Arbovirus anti: 0; RecA splice inh: -1.6

Results for COc1ccc(-c2nc3ccc([N+](=O)[O-])cc3o2)cc1 ?
Mtb betalactam: 14; Mtb growth: 2%; Arbovirus anti: -8; YopH PTP inh: -6; RecA splice inh: 1.5

Results for OCCC#Cc1c(-c2ccsc2)sc2ccccc12 ?
Mtb betalactam: 9; RecA splice inh: 10

What do the screens show for `CCOc1ccc(CCNC(=O)COC(=O)c2cccs2)cc1OCC`?
Mtb betalactam: 7; RecA splice inh: 0.9

Results for Cc1ccc(C(=O)Oc2csc(=S)n2C(=O)c2ccc(C)cc2)cc1 ?
Mtb betalactam: 7; Mtb growth: -10%; Arbovirus anti: 5; YopH PTP inh: -5; RecA splice inh: 7.3

Results for CC(C)(C)n1c(O)c(C=Nc2ccc3c(c2)CCC3)c(=O)[nH]c1=O ?
Mtb betalactam: 98; Mtb growth: 38µM*; Arbovirus anti: -3; YopH PTP inh: -49; RecA splice inh: -3.3

Results for Cc1nc(C)c(-c2csc(NCc3ccccc3)n2)s1 ?
Mtb betalactam: inconclusive; Mtb growth: 7%; Arbovirus anti: -2; YopH PTP inh: -50; RecA splice inh: 4.0

How did COc1ccc(C(=O)NCCn2ccc3ccccc32)c(OC)c1 do in these assays?
Mtb betalactam: 2; Mtb growth: 0%; Arbovirus anti: -11; YopH PTP inh: -105

Results for CCCC1Cc2c(sc3ncnc(N)c23)CO1 (configuration not stated) ?
Mtb betalactam: 5; Mtb growth: -9%; Arbovirus anti: -3; YopH PTP inh: -1; RecA splice inh: -1.7

What do the screens show for `C=CCn1c(SCC(=O)Nc2cc(C)ccc2C)nnc1-c1cnccn1`?
Mtb betalactam: -7; Mtb growth: -3%; Arbovirus anti: 1; YopH PTP inh: -31; RecA splice inh: 2.1

What do the screens show for `CCOC(=O)C(Cc1c(F)cccc1Cl)c1ccnc2nc(N)nn12` (configuration not stated)?
Mtb betalactam: -1; Mtb growth: -10%; Arbovirus anti: 1; RecA splice inh: 1.6

Arranged by molecular weight (rising): part of the list above.
How did CCC1CCCCN1Cc1ccc(OC)c(C)c1C (configuration not stated) do in these assays?
Mtb betalactam: -6; Mtb growth: -10%; Arbovirus anti: -5; YopH PTP inh: -7; RecA splice inh: -2.3

Results for Cc1nc(C)c(-c2csc(NCc3ccccc3)n2)s1 ?
Mtb betalactam: inconclusive; Mtb growth: 7%; Arbovirus anti: -2; YopH PTP inh: -50; RecA splice inh: 4.0

How did COCC(=O)N(Cc1cc2cccc(C)c2[nH]c1=O)c1ccccc1 do in these assays?
Mtb betalactam: 2; RecA splice inh: 0.2

How did CCCCc1ccc(NC(=O)COc2ccc(C(=O)Nc3ccccc3OCC)cc2)cc1 do in these assays?
Mtb betalactam: 49; Mtb growth: 78%; Arbovirus anti: -7; YopH PTP inh: -16; RecA splice inh: -1.6

What do the screens show for `COc1ccc(N(CC(O)CN2C(=O)NC(C)(C)C2=O)S(=O)(=O)c2ccccc2)cc1` (configuration not stated)?
Mtb betalactam: 8; Mtb growth: -3%; Arbovirus anti: 3; YopH PTP inh: -17; RecA splice inh: 4.2

Later entries
What do the screens show for `COc1cccc(/C=N/NC(=O)C(=O)NCc2ccco2)c1OC`?
Mtb betalactam: 42; Mtb growth: 42%; Arbovirus anti: 11; YopH PTP inh: -10; RecA splice inh: 0.1

Results for COc1ccc2oc(=O)c(C(=O)NCc3ccc(F)cc3)cc2c1 ?
Mtb betalactam: 10; RecA splice inh: 0.0

How did Cc1oc2ccc(OCc3ccc(F)cc3Cl)cc2c1C(=O)O do in these assays?
Mtb betalactam: 10; Mtb growth: 4%; RecA splice inh: 2.3

How did COCCNCC(=O)Nc1nc(C)cs1 do in these assays?
Mtb growth: 2%; Arbovirus anti: 9

Results for Cc1cccc(N(C)S(=O)(=O)c2csc(C(N)=O)c2)c1 ?
Mtb betalactam: -7; RecA splice inh: -1.0

Results for COc1ccc(O)c(C=Nc2cc(C)on2)c1 ?
Mtb betalactam: -8; Mtb growth: 0%; Arbovirus anti: -4; YopH PTP inh: -49; RecA splice inh: 1.8

Results for CCn1c(-c2cc(-c3ccc(C)cc3)nc3ccccc23)n[nH]c1=S ?
Mtb betalactam: 38; Mtb growth: 10%; Arbovirus anti: 3; RecA splice inh: 1.6

How did COc1ccc(C2C(C(=O)NCc3ccco3)CCC(=O)N2c2ccc(OC)cc2)cc1 (configuration not stated) do in these assays?
Mtb betalactam: -8; Mtb growth: 2%; Arbovirus anti: 2; YopH PTP inh: -18; RecA splice inh: 1.0

What do the screens show for `CCOC(=O)c1ccc(NS(=O)(=O)c2cc(-c3nnnn3CC)ccc2OC)cc1`?
Mtb betalactam: -4; Mtb growth: -6%; Arbovirus anti: 9; YopH PTP inh: -36; Arbovirus anti repeat: -1

Results for COc1cccc(NC(=O)c2ccccc2-c2ccccc2C(=O)O)c1 ?
Mtb betalactam: 0; RecA splice inh: 0.4

Results for CCCCN(C1CCS(=O)(=O)C1)S(=O)(=O)c1ccc(OC)c(OC)c1 (configuration not stated) ?
Mtb betalactam: -10; RecA splice inh: -0.7

What do the screens show for `O=C(Nc1nnc(CCc2ccccc2)s1)c1ccco1`?
Mtb betalactam: 3; Mtb growth: -7%; Arbovirus anti: -14; YopH PTP inh: -8; RecA splice inh: -0.2

What do the screens show for `CN1CCN(CCCCC(=O)c2ccccc2)CC1`?
Mtb betalactam: 8; Mtb growth: -1%; Arbovirus anti: 8; YopH PTP inh: -11; RecA splice inh: -0.2

How did CCn1ncc(N2CCOCC2)c(Cl)c1=O do in these assays?
Mtb betalactam: 2; RecA splice inh: -1.4

How did O=C(NCC(c1ccco1)N1CCCCC1)c1ccc(OCc2ccccc2)cc1 (configuration not stated) do in these assays?
Mtb betalactam: -6; Mtb growth: 37%; Arbovirus anti: 13; RecA splice inh: 0.9

Results for Cc1ccccc1N=C1c2ccccc2C(=O)C1[N+](=O)[O-] (configuration not stated) ?
Mtb betalactam: 16; Mtb growth: -3%; Arbovirus anti: -4; RecA splice inh: 0.8

Results for Cc1cc(N)nc2nc(C(F)(F)F)nn12 ?
Mtb betalactam: -6; Mtb growth: 0%; Arbovirus anti: -5; RecA splice inh: 1.5

Results for COc1ccc(/C=N/NC(=O)/C(=C/c2ccccc2)CCO)cc1 ?
Mtb betalactam: -2; Mtb growth: 2%; Arbovirus anti: -8; YopH PTP inh: -40; RecA splice inh: -3.8

Results for COc1cc(N=Cc2c(CO)cnc(C)c2O)cc(OC)c1OC ?
Mtb betalactam: 8; RecA splice inh: -1.9

Results for COc1ccc(CC(=O)Nc2ccc(C(N)=O)cc2)cc1 ?
Mtb betalactam: -1; Mtb growth: -1%; RecA splice inh: -0.2

What do the screens show for `O=C(Nc1ccccc1C(=O)N1CCN(Cc2ccccc2)CC1)c1ccc(F)cc1`?
Mtb betalactam: -1; RecA splice inh: -1.8

What do the screens show for `N/C(=N\OC(=O)COc1ccc([N+](=O)[O-])cc1)c1cccnc1`?
Mtb betalactam: -6; Mtb growth: 4%; Arbovirus anti: 4; RecA splice inh: 1.8

Bioassay records as filed in PubChem BioAssay.
